TRPML1 agonist – activates the human TRPML1 channel. TRPML1-expressing cells, Ca2+ dye fluorescence, FDSS; host cell line not named in the record; reference of the full effect not given here. activation, % (concentration not given with the values). 410,000 compounds, 0.12% hits. Q9GZU1; in the data active = activation above about 50%; inconclusive = about 30% to 50%; inactive = below about 30%; note: 0% is about no effect; the text of the record puts the active cut at 80%
Target sequence (Q9GZU1 whole entry, looked up): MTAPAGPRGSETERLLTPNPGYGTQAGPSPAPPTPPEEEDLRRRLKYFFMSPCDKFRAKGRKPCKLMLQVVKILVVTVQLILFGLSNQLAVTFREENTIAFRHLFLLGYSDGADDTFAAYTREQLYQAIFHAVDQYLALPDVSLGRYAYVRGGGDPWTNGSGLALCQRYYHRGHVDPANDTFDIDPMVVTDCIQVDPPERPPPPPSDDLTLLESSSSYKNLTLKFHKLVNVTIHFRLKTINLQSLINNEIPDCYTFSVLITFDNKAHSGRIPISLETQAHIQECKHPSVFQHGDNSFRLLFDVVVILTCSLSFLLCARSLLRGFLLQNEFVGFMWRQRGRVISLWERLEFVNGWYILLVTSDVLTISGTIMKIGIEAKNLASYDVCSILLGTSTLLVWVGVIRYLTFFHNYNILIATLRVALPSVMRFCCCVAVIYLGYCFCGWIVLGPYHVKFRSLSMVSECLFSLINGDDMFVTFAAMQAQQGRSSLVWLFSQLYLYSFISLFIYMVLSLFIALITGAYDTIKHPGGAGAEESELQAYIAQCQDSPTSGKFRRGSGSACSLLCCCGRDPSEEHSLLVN
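Calcium fluorescence on an FDSS kinetic reader gave the read-out. Tet-induced TRPML1-DL cells were plated overnight, dye-loaded (Ca8 with quencher, 45-90 min, room temperature, dark), then read 110 s after compound addition, and again 110 s after 4uM final 54-4 (EC80).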
D2 potentiator – potentiates the human D2 dopamine receptor allosterically; P14416; DiscoveRx D2 beta-arrestin cells, luminescence, 90 min; 100% = 57 uM dopamine signal; potentiation, % (test concentration not listed); 360,000 compounds, 0.23% hits; active = potentiation of 50% or more; inconclusive = 30% to 50%; inactive = 30% or less;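 note: compound concentration not given in the record; tested on top of an EC20 dose of dopamine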
Target sequence (P14416 whole entry, looked up): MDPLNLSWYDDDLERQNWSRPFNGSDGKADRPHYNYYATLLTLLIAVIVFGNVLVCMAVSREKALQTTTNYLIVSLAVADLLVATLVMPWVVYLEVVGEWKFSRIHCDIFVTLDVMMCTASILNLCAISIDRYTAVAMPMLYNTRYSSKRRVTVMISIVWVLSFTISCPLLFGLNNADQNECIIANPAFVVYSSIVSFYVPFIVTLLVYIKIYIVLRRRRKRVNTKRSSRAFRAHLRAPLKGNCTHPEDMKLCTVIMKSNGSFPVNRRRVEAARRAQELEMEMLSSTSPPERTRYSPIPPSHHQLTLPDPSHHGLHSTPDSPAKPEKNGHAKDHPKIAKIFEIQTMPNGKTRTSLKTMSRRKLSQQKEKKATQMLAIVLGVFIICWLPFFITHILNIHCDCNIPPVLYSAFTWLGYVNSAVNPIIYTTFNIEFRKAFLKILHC
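PathHunter beta-arrestin assay in DiscoveRx D2 cells. Compounds were added with an EC20 of dopamine (50 nM final) for 90 min at 37 deg C. Luminescence was read 1 h after detection reagent, with 57 uM dopamine as the EC100 control.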
CtBP-E1A blk – blocks the CtBP interaction with E1A; AlphaScreen GST-E1A/His-CtBP binding, 1536-well; active compounds read low; control for the full effect not named in the record; activity change, % (no concentration beside the values); 340,000 compounds, 0.49% hits; AID 651724; in the data active means activity change below about -65%; inconclusive means about -30% to -65%; inactive means above about -30%; note: % is set by controls: 0 for no effect and ±100 for the full control effect
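Steps: dispense buffer (Tris pH 8.0, NaCl 300 mM, TCEP 1 mM, BSA, Tween 20); add 5X protein mix (GST-E1A, His-CtBP, 125 nM each); pin 23 nL compound; 2 h at 37 °C, dark; add 5X beads (50 ug/mL); 1 h; read.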
PINK1 modulator – modulators of PINK1 expression. PINK1 immunofluorescence, high-content cytometry, 24 h. Potency, µM (titrated, usually from 76.6 µM), for inactives: at the top dose activation (PINK1 increase), most hits filed as activators. 410,000 compounds, 0.2% hits. AID 624263; active = well fitted activation curve with a large enough effect; inconclusive = small, poorly fitted or top-dose-only effect; inactive = flat fitted curve, though single readings scatter; cell line not stated here;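 note: potency is the fitted concentration of half-maximal effect; % of control where 0% means no effect; nearly all actives have a fitted effect of over 65% in size; a mitochondrial uncoupler was the plate control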
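Measures PINK1 amount and localization on or inside mitochondria by immunofluorescence. Stable cells get compounds at 5 concentrations for 24 hours before fixation and staining; CCCP controls included.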
Six1-Eya2 blk – Six1/Eya2 interaction inhibition | Q15475+O00167 | AlphaScreen GST-Six1/His-Eya2 binding, biochemical; active compounds read low; control for the full effect not named in the record | activity change, % (concentration not given with the values) | 360,000 compounds, 0.56% hits; in the data active = activity change below about -65%; inconclusive = about -30% to -65%; inactive = above about -30%; note: % is set by controls: 0 for no effect and ±100 for the full control effect
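Compounds are tested against tagged Six1 and Eya2 proteins bridged by glutathione donor and nickel acceptor beads; after a one-hour incubation at 37 °C without light, AlphaScreen emission is recorded.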
D2 agonist – agonists of human D2 dopamine receptor (beta-arrestin); 360,000 compounds, 0.084% hits; activation, % (concentration not given with the values); DiscoveRx PathHunter D2 beta-arrestin, luminescence, 90 min; 100% = 57 uM dopamine signal; in the data active = activation above about 40%; inconclusive = about 15% to 40%; inactive = below about 15%; note: the text of the record calls up to 30% inactive
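Agonist mode: compounds alone added to overnight-plated D2 PathHunter cells for 90 min at 37 C, with 57 uM final dopamine (EC100) defining full response. Beta-arrestin recruitment detected by chemiluminescent reagent, read after 1 h at ambient temperature.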
* = called active by the depositor; ? = inconclusive; / = not tested or not shown; [ ] = dose if it differs, or a comment.

SMILES	TRPML1 agonist	D2 potentiator	CtBP-E1A blk	PINK1 modulator	Six1-Eya2 blk	D2 agonist
CCOC(=O)c1ccc(C(=O)OCC)c(NC(=S)Nc2ccc([N+](=O)[O-])cc2OC)c1	-0.2	-34	-11	3.1%	-11	-2.1
NNC(=O)CSc1nnnn1-c1ccccc1	0.0	-10	0	0.8%	1	-4.8
CCOCCCNCc1c(Cl)cccc1Cl	0.0	-10	-2	4.1%	3	-1.9
CCOC(=O)C1(CCOc2ccccc2)CCN(Cc2ccc(O)cc2)CC1	-0.1	-3	0	0.3%	-9	-4.0
Cc1ccc(C(=O)CNc2ccc(F)cc2)cc1	0.7	-66	1	2.7%	7	-15
Clc1cccc(NC2=NCCC2)c1	0.3	5	10	-1.9%	7	-5.2
Cc1ccc(S(=O)(=O)c2c(COC(=O)c3cccc(Cl)c3)c(-c3ccccc3)nn2C)cc1	0.8	-17	2	8.1%	25	-5.2
COc1ccccc1C1SCCN1S(=O)(=O)c1ccccc1 (stereo unspecified)	0.8	-7	5	-0.5%	-5	-0.5
COCCn1c(SCC(=O)NNC(=O)c2ccc(OC)c(OC)c2)nc2ccccc2c1=O	-0.1	0	/	-0.8%	9	8.9
COc1ccccc1C(=O)NNC(=O)c1csc(N2CCOCC2)n1	0.2	10	4	-1.3%	4	-0.1
O=C(OCC(=O)N1N=C(c2ccc(Cl)cc2)CC1c1ccco1)c1cccnc1 (stereo unspecified)	-0.4	-17	/	5.0%	-20	-1.7
O=C(COc1ccccc1)N=C1SC2CS(=O)(=O)CC2N1c1ccc(F)cc1F (stereo unspecified)	-0.2	-11	0	-1.5%	2	-1.5
CC(C)(c1ccccc1)c1ccc(OCC(O)CNC2CCN(Cc3ccccc3)CC2)cc1 (stereo unspecified)	0.6	-48	4	-2.0%	3	-4.8
N#CCc1c(C#N)c(N)nc(N2CCCC(CO)C2)c1C#N (stereo unspecified)	-0.6	-1	10	-0.7%	1	1.6
COc1ccc(C2C=C(c3ccccc3)Nc3nnnn32)cc1 (stereo unspecified)	0.9	-11	10	-1.9%[38.3 µM]	2	1.0
COc1ccccc1N(CC(O)Cn1ccnc1C)S(=O)(=O)c1ccccc1 (stereo unspecified)	0.2	-3	-7	2.9%	6	-4.0
CN(C1CCCCC1)S(=O)(=O)c1ccc2c(c1)CCC(=O)N2	-0.4	9	6	2.2%	3	2.2
COc1cccc2cc(C(=O)N3CCN(C/C=C/c4ccccc4)CC3)c(=O)oc12	0.1	-15	-13	-0.4%	-4	-3.6
FC(F)(F)c1nc2ccccc2n2c(-c3c(Cl)cccc3Cl)nnc12	2.7	-31	-12	11%	-2	-4.7
CC(C)Oc1ccc(C(CC(=O)N2CCOCC2)C(C)C)cc1 (stereo unspecified)	/	-5	1	1.7%	-4	-1.0
O=C(CCn1cccc1)Nc1ccc(F)cc1	0.3	-7	-6	-1.6%	-1	-3.4
O=C(N/N=C/c1ccccc1)c1ccc(NC(=O)c2ccc(F)cc2)cc1	-0.2	-15	-11	1.3%	4	-1.0
CC(=O)N1CCc2c(sc(NC(=O)c3ccc(S(=O)(=O)N(C)CC4CCCO4)cc3)c2C(N)=O)C1 (stereo unspecified)	-1.0	-2	-5	-0.2%	-13	-1.2
O=C(NCc1ccco1)c1ccccc1Br	-0.9	0	3	0.1%	-4	-3.6
Cc1ccc(NC(=O)Cc2ncc(C(F)(F)F)cc2Cl)cc1Cl	0.5	-17	13	19%	0	-1.2

(further entries)
SMILES	TRPML1 agonist	D2 potentiator	CtBP-E1A blk	PINK1 modulator	Six1-Eya2 blk	D2 agonist
Cc1cc(C(=O)N/N=C/c2ccc(OCc3ccccc3)cc2)c(C)o1	1.0	-5	/	0.5%	-2	0.4
CC(C)NC(=O)C1CCN(C(=O)N(C)C)CC1	-0.4	-15	4	/	11	0.4
O=C1C=CC2(C=C1)O[C@H](Cc1ccccc1)[C@@H](Cc1ccccc1)O2	2.8	-36	6	-5.7%	-19	-8.9
COc1ccc2c(c1)C1CC(C)(NC(=O)C1S(=O)(=O)c1ccc(F)cc1)O2 (stereo unspecified)	1.6	-12	-9	0.8%	-22	-0.3
CC1CCC(NC(=O)COC(=O)C2=NN(c3ccccc3)C(=O)CC2)CC1 (stereo unspecified)	-0.6	-1	12	0.5%	2	-3.2
CCOC(=O)c1c(NC(=O)CSc2nnc(-c3ccco3)o2)sc(C(C)=O)c1C	0.7	-1	-1	0.4%	-9	-0.3
COc1ccc(/C=C(\NC(=O)c2cccs2)C(=O)NC(C)(C)C)cc1OC	0.9	-10	/	-0.9%	-3	-2.3
COc1ccc(-c2cc(C(=O)N3CCCC3)no2)cc1OC	2.9	12	-3	1.0%	-5	11
COc1ccc(C(=O)NC(C)c2ccc(-n3ccnc3)cc2)cc1[N+](=O)[O-] (stereo unspecified)	0.0	-13	3	-1.7%	-5	-1.5
Cc1cc(NC(=O)CSCC(=O)Nc2nc3ccccc3s2)no1	2.5	-1	-7	0.6%	2	6.1
CC(C)(C)NC(=O)NC(=O)COC(=O)Cn1cnc2ccccc2c1=O	-0.3	-8	/	-1.0%	2	4.8
COc1cc(Br)cc(CNc2ccc(F)c([N+](=O)[O-])c2)c1O	0.2	4	-5	4.5%	-12	-3.4
Cc1ccc(NC(=S)NCCc2c[nH]c3ccccc23)c(C)c1	1.6	5	/	0.6%	-2	-0.1
COc1ccc(-n2nc(C(=O)NCC(=O)NC3CCCCCC3)c3ccccc3c2=O)cc1OC	-1.3	6	1	4.3%	0	0.5
CCN1C(=O)CC(c2ccc(OC(C)C)cc2)C1=O (stereo unspecified)	-1.0	-3	6	1.5%	1	-0.7
CCC(CCc1ccccn1)C(=O)c1ccccc1 (stereo unspecified)	5.4	-11	3	4.9%	7	-5.7
Cn1nc(C(=O)NCC(c2cccs2)N2CCOCC2)c2ccccc2c1=O (stereo unspecified)	0.2	-7	-1	1.1%	4	-4.7
COc1ccc(-c2noc(N3CCC(C(=O)NCCCN4CCC(C)CC4)CC3)n2)cc1	-0.1	-3	7	-0.6%	7	5.6
COc1cc2c(cc1OC)CN(CC(=O)Nc1cccc(C)c1)CC2	1.0	-6	-1	-1.5%	4	2.2
COc1cc2c(cc1OC)CN(C(=O)CSc1nnc3scc(-c4ccccc4)n13)CC2	2.3	3	-3	0.0%	2	-2.5
S=C(NCCN1CCOCC1)Nc1cccc(Cl)c1	-0.5	-7	4	-2.2%	3	-2.0
O=C(COC(=O)c1ccc(Br)o1)Nc1ccc2c(c1)OCCO2	-0.2	-5	-2	-3.0%	1	1.3
COc1cc(Nc2nc3ccccc3n3nnnc23)cc(OC)c1OC	-1.2	8	-1	5.0%	8	?
Cc1ccc(C(=O)Nc2ccc(C(=O)N/N=C/c3cccnc3)cc2)cc1	0.3	-2	-7	6.7%	-19	7.6
Cc1nc(-c2ccc(S(=O)(=O)Nc3cc(S(=O)(=O)N(C)C)ccc3C)s2)cs1	0.5	-9	-7	0.7%	2	-5.1

Continuation.
SMILES	TRPML1 agonist	D2 potentiator	CtBP-E1A blk	PINK1 modulator	Six1-Eya2 blk	D2 agonist
O=C(CSc1ccccn1)Nc1nc2ccccc2s1	-0.5	-2	-4	-0.1%	-17	-1.1
COc1ccc(CNCCNC(=O)c2nonc2N)cc1OC	0.4	-9	0	1.8%[38.3 µM]	1	-3.6
CCOCC(=O)Nc1nc2ccccc2s1	-0.5	21	4	-2.8%	0	-2.2
CCOc1ccc(C2c3[nH]c4ccccc4c3CCN2Cc2cccn2-c2ncccn2)cc1 (stereo unspecified)	0.3	-2	?	0.4%	-7	-2.8
COc1cc(C(=O)NNC(=S)NC(=O)c2ccc(F)cc2)cc(OC)c1OC	2.3	-5	-17	6.9%	-4	-11
Cc1cc(C)n(CC(O)COCc2ccccc2)n1 (stereo unspecified)	-1.0	-3	2	0.4%	2	-2.8
CCCCn1c(N)c(N(CCOC)C(=O)c2nn(CC)c(=O)c3ccccc23)c(=O)[nH]c1=O	0.2	-5	-11	-0.1%	5	-0.4
Cc1ccc(NC(=O)CSc2ncn(-c3ccccc3)n2)cc1C	0.6	-6	-2	-3.7%[38.3 µM]	-1	1.0
COc1cc(C(=O)NC2CCCc3c2cnn3-c2ccccc2F)cc(OC)c1OC (stereo unspecified)	-0.6	-20	-3	0.9%	-1	-1.9
CCOC(=O)CNC(=O)CNC(=O)c1ccc(OC(C)C)cc1	0.5	4	/	-0.6%	-4	5.5
COc1ccc(CCC(=O)NCCS(=O)(=O)N2CCN(c3ccc(OC)cc3)CC2)cc1	-0.9	6	3	-0.4%	-2	2.8
CCOC(=O)C1(C)C=C(Nc2ccc(O)cc2)C(=O)N1c1ccc(O)cc1 (stereo unspecified)	0.1	104*	-11	4.4%	-12	?
Cc1c(O)nc(SCC(=O)Nc2ccc3c4c(cccc24)CC3)n(-c2ccc(F)cc2)c1=O	0.1	-1	-27	20%	?	-0.5
CCOC(=O)c1sc(-c2ccc(F)cc2)cc1NC(=O)Nc1ccccc1OC	-0.6	-17	-23	12%	-8	-3.7
CCOc1ccc(C(=O)NC(=S)NCCCN2CCOCC2)cc1	1.1	-15	-6	-1.2%	-5	-1.0
Cc1ccc2c(CC(=O)NNC(=O)c3ccccc3O)coc2c1	1.1	4	-28	1.7%	-2	-2.4
Cc1ccc(F)c(S(=O)(=O)NC(=O)C2(C)CCN2C(=O)CCc2cccs2)c1 (stereo unspecified)	-0.5	-9	-3	0.5%	4	-2.6
CS(=O)(=O)N1CCC(C(=O)Nc2ccc(Cl)c(Cl)c2)CC1	0.7	-15	5	3.9%	5	-3.9
Cc1cccc(OCC(O)Cn2c(-n3nc(C)cc3C)nc3c2c(=O)[nH]c(=O)n3C)c1 (stereo unspecified)	-0.9	1	13	0.4%	2	-2.9
CC1CC(C)CN(CC(C)(C)NS(=O)(=O)c2ccc(Cl)cc2)C1 (stereo unspecified)	-0.4	-35	2	1.1%	0	-4.0
CC(=O)Nc1ccc(S(=O)(=O)N[C@@H](C)C(=O)OCc2cc([N+](=O)[O-])cc3c2OCOC3)cc1	1.8	-13	-6	1.0%	1	-0.9
Fc1ccc(N2C(=S)SC(=Nc3ccccc3)C2=Nc2ccccc2)cc1	1.1	-9	-4	2.8%	0	0.1
CCOC(=O)C1CCN(C(=O)c2cccnc2Oc2ccccc2)CC1	0.6	0	11	-1.4%	-1	-4.8
